Beta apoptosis: blocks beta cell apoptosis. INS-1E cytokine-induced death, ATP luminescence, 48 h; percent of positive-control rescue, neutral wells zero. protection from apoptosis, % (concentration not given with the values). 300,000 tested, 0.8% active. AID 435005;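 active = all replicates at 75% or more, or half of them and the mean; inconclusive = half reach 75% but not the mean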;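 note: 0% = cytokine-treated negative control wells and 100% = positive control rescue; higher means more ATP so stronger rescue from cytokine killing; wells of about 40 µL received 100 nL stock; the first replicate is given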
rRNA inh HTS: inhibits bacterial ribosomal RNA function over humanized ribosomes; GFP signal change (wild-type ribosome), % (test concentration not listed); AID 720706; 350,000 tested, 1.6% active; E. coli WT GFP vs humanized-ribosome RFP mutants, fluorescence, 24 h; active compounds read low; DMSO median 0, no signal -100;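 active = significant combined selectivity score with lowered wild-type GFP, culture density cut under 30%, mutant RFP and density less affected; inactive = any of these conditions unmet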; note: one replicate is shown; some compounds called inactive have numbers as strong as hits
RanGTP-Imp inh: inhibitors of RanGTP-importin-beta interaction, primary screen, biochemical, FRET, CFP-Ran, YFP-importin-beta, homogeneous; cell-free CFP-Ran/YFP-importin-beta FRET ratio; inhibition, % (concentration not given with the values); 300,000 tested, 1.1% active;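 active = most replicates above 15%; inconclusive = exactly half above 15%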;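 note: 0% = DMSO wells and 100% = Ran loaded with GDP instead of GTP; wells of about 40 µL received 100 nL stock; the first replicate is given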
AF4-AF9 inh: MLL-AF4/AF9 protein interaction inhibition | AID 651704 | 350,000 tested, 0.47% active | inhibition, % at 10 µM | AlphaScreen, biotin-AF4 peptide binding to FLAG-AF9;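 active = every replicate reaching a set inhibition limit, whatever the replicate mean, cut at about 25% in these data; inconclusive = mean inhibition reaches that limit but some replicates miss it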;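 note: 0% = plate neutral control median and 100% = total signal loss; the record names both 10 and 1 µM as test concentration; the first replicate is given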
Target sequence (P42568 whole entry, looked up): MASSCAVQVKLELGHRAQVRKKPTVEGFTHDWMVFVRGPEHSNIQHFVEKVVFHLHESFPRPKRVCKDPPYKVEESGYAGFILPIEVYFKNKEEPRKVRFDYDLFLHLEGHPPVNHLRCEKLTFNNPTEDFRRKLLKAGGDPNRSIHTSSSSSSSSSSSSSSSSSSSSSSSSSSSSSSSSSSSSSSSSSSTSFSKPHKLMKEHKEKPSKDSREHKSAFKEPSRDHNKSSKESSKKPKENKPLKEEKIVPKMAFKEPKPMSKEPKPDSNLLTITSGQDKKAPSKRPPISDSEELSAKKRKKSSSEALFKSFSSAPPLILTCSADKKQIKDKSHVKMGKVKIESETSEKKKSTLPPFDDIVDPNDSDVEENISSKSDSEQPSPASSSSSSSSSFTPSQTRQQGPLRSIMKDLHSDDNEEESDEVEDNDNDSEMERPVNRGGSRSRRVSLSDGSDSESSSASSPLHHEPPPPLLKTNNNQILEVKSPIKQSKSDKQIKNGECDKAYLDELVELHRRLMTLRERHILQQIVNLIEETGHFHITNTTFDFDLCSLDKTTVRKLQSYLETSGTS
FGF22 binding: shifts melting point of recombinant human FGF22 | Q9HCT0 | recombinant FGF22 thermal shift, SYPRO orange fluorescence; percent of sucrose octasulfate shift, DMSO zero | calls only at 9.99 µM | 340,000 tested, 1.5% active | AID 651658;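 active = melting point raised past a set limit in the mean and every replicate; inconclusive = no clear call; three in four hits are not shown here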
Target sequence (Q9HCT0 whole entry, looked up): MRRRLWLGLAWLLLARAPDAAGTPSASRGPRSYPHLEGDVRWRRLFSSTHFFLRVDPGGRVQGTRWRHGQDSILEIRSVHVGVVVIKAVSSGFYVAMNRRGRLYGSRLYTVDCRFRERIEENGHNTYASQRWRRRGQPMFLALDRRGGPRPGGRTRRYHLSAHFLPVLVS
Calb FLC: C. albicans growth modulation with fluconazole; growth inhibition, % (test concentration not listed); C. albicans CaCi-2 (fluconazole-resistant clinical isolate) + fluconazole, Alamar Blue growth, 48 h; 300,000 tested, 0.57% active;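 active = most replicates above 75%; inconclusive = exactly half above 75%; inactive = most below 75%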;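 note: all wells also contain fluconazole at 8 µg/ml as a sub-toxic cotreatment; 0% = median of DMSO wells and 100% = median of geldanamycin control wells; wells of about 8 µL received 7.5 nL stock; the first replicate is given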
T cruzi repl: T. cruzi replication inhibition. T. cruzi beta-gal in NIH3T3, luminescence, 90 h. inhibition, % (concentration not given with the values). 300,000 tested, 1.4% active;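 active = mean inhibition across valid replicates above about 55%, limit read from the data; inconclusive = mean below that limit but half or more replicates reach it; inactive = mean below it, under half of replicates reach it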;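 note: signal also drops with host cell toxicity which is not excluded here; 0% = plate median of DMSO wells and 100% = zero luminescence signal; higher percent means less beta-gal luminescence so fewer parasites; stock transfer was 50 nL into about 50 µL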
ALR H2O2 inh: human ALR oxidase inhibition via reduced H2O2; AID 485317; 290,000 tested, 3.8% active; purified ALR, DTT oxidation, H2O2 HRP-luminol luminescence; P55789; inhibition, % (no concentration beside the values);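 active = mean and each replicate at 75% or more; inconclusive = only one of the two met; inactive = neither met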;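 note: stock transfer was 7.5 nL into about 7.5 µL; 0% = neutral wells and 100% = wells with inactivated enzyme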
Target sequence (P55789 whole entry, looked up): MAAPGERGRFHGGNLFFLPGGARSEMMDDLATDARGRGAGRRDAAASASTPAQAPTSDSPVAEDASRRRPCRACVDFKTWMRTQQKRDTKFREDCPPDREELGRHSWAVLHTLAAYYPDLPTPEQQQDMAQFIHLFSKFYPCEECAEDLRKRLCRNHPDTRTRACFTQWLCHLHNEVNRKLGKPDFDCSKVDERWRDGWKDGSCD
rRNA inh HTS OD600: also measured in rRNA inh HTS; calls as there; OD600 change, %; measured here: OD600 growth;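 optical density of the mix in the first replicate; 0 = DMSO median and -100 = no signal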
rRNA inh HTS RFP: also measured in rRNA inh HTS; calls as there; RFP signal change, %; measured here: RFP humanized mutant strains;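 first replicate; 0 = DMSO median and -100 = no signal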
* hit, by the source's call; i = inactive; ? = inconclusive; · = no result given; & = joins results of further samples. Not all compounds are listed (hit frequency here may not be typical).

SMILES	Beta apoptosis	rRNA inh HTS	rRNA inh HTS OD600	rRNA inh HTS RFP	RanGTP-Imp inh	AF4-AF9 inh	FGF22 binding	Calb FLC	T cruzi repl	ALR H2O2 inh
O=c1o[nH]c(-c2ccccc2)c1C1=NCCCCC1	-4	·	·	·	3.0	·	·	40	-20	·
CC1CCCC(NC(=O)CCNS(=O)(=O)c2ccc(Br)cc2)C1C (stereo not drawn)	4	-10	1	-0.9	-2.9	-1.2	i	-16	4	·
Cn1cc(P(=S)(N2CCOCC2)N2CCOCC2)cc1P(=O)(N1CCOCC1)N1CCOCC1	2	·	·	·	5.2	-15	·	-23	-7	-1
COc1ccc(NC(=O)/C(C#N)=C\C=C\c2ccco2)cc1	-1	·	·	·	-2.5	·	·	-11	-46	-41
Cc1nc(-n2[nH]c3c(c2=O)CCCC3)[nH]c(=O)c1Cc1ccccc1	-6	·	·	·	-14	·	·	89*	69*	6
COc1ccccc1OCc1cc(C(=O)NCc2ccc(N3CCCC3=O)cc2)no1	-1	-1	-7	-4.1	3.1	0.8	i	14	2	9
O=C(NC(=S)NCC1COc2ccccc2O1)c1ccccc1 (stereo not drawn)	2	·	·	·	1.0	·	·	0	-9	2
CCOC(=O)c1[nH]c(C)c(/C(O)=C2\C(=O)C(=O)N(CCN(C)C)C2c2cccc(OC)c2OC)c1C (stereo not drawn)	-1	·	·	·	3.3	·	·	-2	-8	0
CCCCNCCOCCOc1ccc(C)cc1Br	5	·	·	·	9.6	·	·	-1	42	-1
O=C(CCN1c2ccccc2Sc2ccccc21)OCc1nnc(-c2ccccc2)o1	1	·	·	·	-4.3	·	·	-2	10	48
Cc1nc(CSc2nnc3scc(-c4ccc(Cl)cc4)n23)cs1	5	·	·	·	·	·	·	-34	-2	-12
c1cncc(-c2nnc(C3CCCCC3)o2)c1	-4	·	·	·	4.5	·	·	-4	-13	0
CC(C)c1ccc(NC2CCCN(C(=O)c3n[nH]c4c3CCC4)C2)cc1 (stereo not drawn)	2	-6	-11	-7.1	-2.8	3.3	i	-24	3	99*
Cc1ccc(Nc2cc(C)nc3ncnn23)cc1	-3	-4	5	-2.6	4.8	-3.2	i	13	1	-5
O=C(NCCCN1CCOCC1)c1ccc(NS(=O)(=O)c2cccc([N+](=O)[O-])c2)cc1	-3	12	11	3.1	2.4	0.5	i	-9	-15	2
CC1CC(C)CN(C2CCN(Cc3cccnc3)CC2)C1 (stereo not drawn)	-6	·	·	·	1.4	·	·	1	0	-7
O=C(Cn1c(=O)n(CCCCC(=O)NC2CCCC2)c(=O)c2ccccc21)NCCC1=CCCCC1	2	·	·	·	3.3	·	·	6	8	0
CCOCCc1nnc(NC(=O)CS(=O)(=O)c2ccc(C)cc2)s1	·	·	·	·	1.8	-1.5	i	6	4	-9
CCC(CC)c1nnc(NC(=O)c2c(C)nn(Cc3ccccc3Cl)c2C)s1	-14	·	·	·	-1.8	·	·	-3	26	4
O=C1/C(=C/c2ccncc2)CCc2ccccc21	8	-8	-9	-2.4	2.2	1.4	·	8	9	-15
CCOC(=O)C1CCCN(CCc2ccccc2)C1 (stereo not drawn)	-13	17	14	1.9	-5.5	-1.7	i	-6	1	-12
CN(CC(=O)N1CCN(Cc2ccccc2)CC1)S(=O)(=O)c1ccc(Br)cc1	2	-2	-6	3.0	0.8	1.7	i	6	21	4
Cc1cc(C)cc(CC2CC(=O)N(c3ccc4c(c3)OCCO4)C2=O)c1 (stereo not drawn)	·	-34	-34	-6.3	3.4	·	·	-6	-15	-6
CC1CCCCN1c1cc(C#N)c(C#N)cc1[N+](=O)[O-] (stereo not drawn)	7	·	·	·	-4.7	·	·	-7	2	5
O=C1CC(c2ccc(Cl)cc2)SC(N(c2ccccc2)c2ccccc2)=N1 (stereo not drawn)	-1	-13	-9	1.9	-0.6	1.0	i	-6	15	-10
Cc1ccccc1S(=O)(=O)Cc1ccc(C(=O)N2CCN(C3CCCCC3)CC2)o1	·	1	0	7.7	0.4	-1.3	i	4	49	-12
O=C(Nc1cccc(Cl)c1)OCc1cnc(Cl)s1	-6	·	·	·	-6.1	·	·	-10	6	-1
Cc1cc(C)c2c(=O)n(CC(=O)NCCCN3CCOCC3)sc2n1	-2	·	·	·	-2.5	·	·	17	23	46
Cc1ccc(N2C(=O)c3cccc4c(Oc5ccccc5[N+](=O)[O-])ccc(c34)C2=O)c(C)c1	13	·	·	·	-0.2	·	·	-6	45	-5
Cc1cc(C)nc(NC(=O)c2cc([N+](=O)[O-])cc([N+](=O)[O-])c2)n1	-1	·	·	·	-0.7	1.5	i	1	?	-7
N/C(=N\N=C\c1ccc([N+](=O)[O-])cc1)c1nonc1N	7	1	11	0.6	-0.5	-0.6	i	3	0	-13
O=[N+]([O-])c1ccccc1N/N=C/c1ccc2c(c1)OCO2	·	12	13	-1.7	3.8	0.0	i	-16	-5	·
CC1C/C(=N/O)C(C)CN1 (stereo not drawn)	-12	·	·	·	-1.7	·	·	-6	-14	-2
CC1Cc2nc(SCC(=O)Nc3ccc4c(c3)OCCO4)n(C)c(=O)c2S1 (stereo not drawn)	5	·	·	·	4.5	·	·	-2	10	94*
CCOC(=O)c1c(C)c(C)n(Cc2ccc(OC)c(OC)c2)c1C	-7	4	7	8.2	5.2	6.2	i	11	-10	·
COC(=O)CSc1nnc(-c2ccc(OC)cc2OC)o1	-2	·	·	·	0.7	·	·	15	-15	-6
O=C(N/N=C\C=C\c1ccc(Br)cc1)c1ccc2c(c1)OCO2	-1	9	16	-0.7	-1.3	-2.8	i	17	-3	-5
COCC(=O)N1CCN(c2cccc(Cl)c2)CC1	-8	14	5	1.3	-2.2	-1.1	i	?	3	·
O=C(Nc1cccc(-n2cnnn2)c1)c1cccnc1	4	1	3	1.0	1.7	-10	i	-1	10	-3
COc1ccc(-c2[nH]c(-c3ccc4c(c3)OCO4)nc2-c2ccccc2)cc1	-1	·	·	·	0.8	·	·	-3	47	·
CN(C(=O)c1cccc(S(=O)(=O)N2CCCC2)c1)C1CCCCC1	-10	-2	4	0.1	·	-4.7	i	·	·	·
Cc1nc(C)c(-c2csc(Nc3ccc(O)cc3C)n2)s1	-2	-11	-4	3.5	-2.8	2.0	i	11	-13	99*
O=C(NNc1ccccc1Br)C(=O)n1ccc2ccccc21	-11	·	·	·	2.7	·	·	-22	12	·
Cc1ccn2c(-c3csc(NCc4ccccc4)n3)c(C)nc2c1	1	·	·	·	?	·	·	2	11	23
O=C(NCC(c1ccco1)N1CCN(c2ccccc2)CC1)C(=O)NC1CCCCC1 (stereo not drawn)	·	5	9	0.2	6.3	-0.8	i	4	9	26
COc1ccc(C(=O)COC(=O)/C=C/c2ccccc2)c(OC)c1	-1	-1	3	-0.6	·	-1.2	i	·	·	·
O=C(NC1CCCCC1)C1CC(O)CN1C(=O)OCc1ccccc1 (stereo not drawn)	-1	·	·	·	-1.8	·	·	2	-5	2
O=C(NC(c1ccccc1)c1ccccc1)C1CCCN(S(=O)(=O)c2cnc[nH]2)C1 (stereo not drawn)	-4	-3	-1	-5.6	?	-6.2	i	-2	-8	44
CCN(CC)CC(O)Cn1c(C)c(-c2ccccc2)c2cc([N+](=O)[O-])ccc21 (stereo not drawn)	1	-40	-70	3.6	-2.9	37*	i	1	31	-52
Cc1ccc2cc(C)c3nnc(SCc4ccc(C(=O)O)cc4)n3c2c1C	-7	0	-6	-3.5	0.6	7.2	i	2	-5	2
Cc1nc(CN2CCN(C(=O)c3ccc(C(C)(C)C)cc3)CC2)cs1	2	-8	-7	-8.0	?	1.9	i	-1	-19	·
Cc1nc2nc[nH]n2c(=O)c1NC(=O)CC12CC3CC(CC(C3)C1)C2	-3&-2	14	8	0.3	0.9&-1.0	2.8	i	24&-13	-13&-25	-2
Cc1ccc(S(=O)(=O)Nc2cc(-c3ccc(Cl)cc3)nn2C)cc1	-7	-32	-34	-5.3	-0.5	-2.3	i	24	-6	11
CC1CN(c2cc(=O)n(-c3ccccc3)c(=O)[nH]2)CC(C)O1 (stereo not drawn)	0	2	11	-9.0	13	-1.7	i	-4	-3	·
COc1ccc(S(=O)(=O)n2nc(C)c(S(=O)(=O)N3CCOCC3)c2C)cc1	0	6	9	1.7	3.2	-2.2	i	-2	-8	0
CC[C@H](C)[C@@H](C(=O)NCCCCCCCCCCC(=O)N1CCN(C(=O)OC(C)(C)C)CC1)n1cc(CCCCCNC(=O)OC(C)(C)C)nn1	101*	8	4	-4.2	·	-1.4	i	·	·	-25
Cc1nc2nc3c(c(=O)n2[nH]1)CCC3	-4	·	·	·	-1.2	·	·	-2	13	-7
CN(C)c1cc[n+](Cc2ccccc2)cc1	52	·	·	·	-1.9	·	·	-6	-33	-4
Cc1ccc(Nc2nnc(-c3ccccc3N)o2)cc1C	·	0	3	-2.4	1.9	0.3	i	-4	16	-6
CC(C)/C=C1\CCc2c([nH]c3ccccc23)C1=O	-4	-8	2	-3.2	1.3	-0.5	i	-2	0	-15

The list continues:
SMILES	Beta apoptosis	rRNA inh HTS	rRNA inh HTS OD600	rRNA inh HTS RFP	RanGTP-Imp inh	AF4-AF9 inh	FGF22 binding	Calb FLC	T cruzi repl	ALR H2O2 inh
Cc1cc(C)c(S(=O)(=O)N2CC=C(c3ccccc3)CC2)c(C)c1	-4	-8	-1	-6.0	3.7	-0.3	i	1	6	-13
COc1ccccc1NC(=S)NC(=O)/C=C/c1ccco1	·	·	·	·	?	·	·	-6	-12	54
COc1ccc(C2C(C(=O)Nc3ccccc3)=C(C)N=C3SCC(=O)N32)cc1 (stereo not drawn)	-2	·	·	·	-2.9	·	·	0	11	-1
O=C1[C@H]2[C@@H](c3ccc(F)cc3)N3C(=O)N(c4cccc(F)c4)C(=O)[C@@]3(Cc3ccccc3)[C@H]2C(=O)N1C1CCCCC1	6	20	15	-7.2	0.3	-5.9	i	-1	10	-2
COCCCNc1nc(CC(C)C)nc2c1nnn2Cc1ccccc1	4	17	3	2.3	-0.6	-8.8	i	-3	11	-3
COc1ccccc1CCNS(=O)(=O)c1cn(C)nc1C	·	1	6	0.8	3.0	-4.4	i	-3	-4	-12
CCOC(=O)C1=C(C)Nc2nc(SC)nn2C1c1ccc(C(=O)OC)cc1 (stereo not drawn)	-8	·	·	·	-2.4	·	·	-8	-12	-8
CC(=O)c1ccc(NC(=O)C(C)N(C)CC(=O)Nc2cccc(F)c2)cc1 (stereo not drawn)	1	4	9	-1.0	·	-5.6	i	-39	·	-5
CCCOC(=O)c1ccc(NC(=O)C2C3C=CC(O3)C2C(=O)O)cc1 (stereo not drawn)	-1	·	·	·	2.8	·	·	-1	-14	59
CCn1c(SCC#N)nc2cc(S(=O)(=O)N3CCOCC3)ccc21	2	4	1	1.7	-4.0	3.2	i	1	-5	-4
Cc1ccc(N(Cc2cc3cc(C)ccc3[nH]c2=O)C(=O)c2cccs2)cc1	-1	-1	5	-5.3	5.4	-0.9	i	15	9	·

Source: PubChem
